Menin-MLL FL inh: qHTS Assay for Inhibitors Targeting the Menin-MLL Interaction in MLL Related Leukemias: Competition With Fluorescein Labeled MLL-derived Peptide | 290,000 tested, under 10 active | Fluorescence polarization, fluorescein-MLL peptide displacement from menin | AID 1766, 2009 | FP activity change, % at 61.4 µM; inconclusive = falling polarisation curve, or a change in total fluorescence; inactive = total fluorescence flat and polarisation flat or rising; no compound was filed as active; the % refers to the polarisation; negative = inhibition;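 also: % of control where 0% means no effect; inhibitors lower the polarisation; unlabelled MLL peptide was the positive control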
TRPML1 inh: qHTS for Inhibitors of the Human Mucolipin Transient Receptor Potential 1 (TRPML1); TRPML1-inducible cells, Ca2+ dye fluorescence, FDSS; stronger effect = lower value; inhibition of EC80 agonist-evoked calcium signal; Mucolipin-1 (Homo sapiens), Q9GZU1; AID 624415, 2012; actives 0.02% (n = 390,000); activity change, negative = inhibition, % (no concentration beside the values); in the data active means activity change below about -50%; inconclusive means about -30% to -50%; inactive means above about -30%;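 also: stimulus is agonist 54-4 at its EC80 concentration; % is scaled to controls: 0 for no effect and ±100 for the full control effect; compound concentration not given in the record; the text of the record puts the active cut at -80%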
Target sequence (Q9GZU1 whole entry, looked up): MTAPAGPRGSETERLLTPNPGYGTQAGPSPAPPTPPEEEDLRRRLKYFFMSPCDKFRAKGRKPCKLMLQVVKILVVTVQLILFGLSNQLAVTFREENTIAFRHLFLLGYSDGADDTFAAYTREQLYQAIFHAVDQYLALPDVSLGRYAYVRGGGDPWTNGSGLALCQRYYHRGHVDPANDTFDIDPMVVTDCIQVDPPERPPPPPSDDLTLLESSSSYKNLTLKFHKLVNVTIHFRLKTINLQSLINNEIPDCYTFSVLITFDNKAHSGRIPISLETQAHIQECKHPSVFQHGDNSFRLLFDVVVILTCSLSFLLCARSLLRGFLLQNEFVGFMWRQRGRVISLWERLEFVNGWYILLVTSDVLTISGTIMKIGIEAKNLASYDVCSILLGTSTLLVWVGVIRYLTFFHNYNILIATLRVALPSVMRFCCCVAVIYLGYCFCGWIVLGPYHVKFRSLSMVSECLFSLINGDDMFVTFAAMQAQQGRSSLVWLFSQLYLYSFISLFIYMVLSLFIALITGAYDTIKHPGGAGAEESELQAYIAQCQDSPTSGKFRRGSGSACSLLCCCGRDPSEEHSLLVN
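TRPML1-DL cells, Tet-induced overnight (~16 h, 37 °C) at 1,500 cells/well, were loaded with Ca8 no-wash dye plus quencher for 45-90 min at room temperature. Compounds were pinned during FDSS kinetic reading; agonist 54-4 at EC80 (4 uM final) then added.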
ClpP mod: qHTS Assay for Activators of ClpP; actives 1.9% (n = 340,000); ATP-dependent Clp protease proteolytic subunit (Bacillus subtilis (strain 168)), P80244; AID 651965, 2013; purified B. subtilis ClpP, FRET peptide cleavage, 20 min; Potency, µM (series often up to 57.5 µM), for the others: at the highest dose activity change, negative = active; active = well fitted falling curve with a large enough effect; inconclusive = small, poorly fitted or top-dose-only effect; inactive = no such curve, though single readings can be large or run the other way; also: potency is read from the fitted curve at half-maximal effect; the source files actives as falling curves though it sought activators and does not explain the sign; nearly all actives have a fitted effect of over 65% in size; many hits overshoot -100%
Target sequence (P80244 whole entry, looked up): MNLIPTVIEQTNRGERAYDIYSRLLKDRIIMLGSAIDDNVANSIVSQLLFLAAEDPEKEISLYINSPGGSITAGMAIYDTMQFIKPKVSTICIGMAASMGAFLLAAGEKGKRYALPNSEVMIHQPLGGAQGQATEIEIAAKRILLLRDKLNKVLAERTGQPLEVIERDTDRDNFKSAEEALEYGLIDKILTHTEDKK
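Purified B. subtilis ClpP, 10 microg/mL final in Tris/HCl pH8 with KCl, BSA, glycerol and Tween-20, cleaved an Abz/nitrotyrosine-quenched decapeptide. Fluorescence (ex 320, em 430) was read at 0 and 20 min at room temperature. Delta was normalized to 5.8 microM ADEP and DMSO/no-enzyme controls.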
TRPML1 ag: qHTS for Agonists of the Human Mucolipin Transient Receptor Potential 1 (TRPML1); AID 624414, 2012; activation, % (test concentration not listed); TRPML1-expressing cells, Ca2+ dye fluorescence, FDSS; host cell line not named in the record; reference of the full effect not given here; actives 0.12% (n = 410,000); in the data active = activation above about 50%; inconclusive = about 30% to 50%; inactive = below about 30%; also: 0% is about no effect; the text of the record puts the active cut at 80%
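Tetracycline-induced TRPML1-DL cells are seeded and incubated overnight before loading with a no-wash Ca2+ dye and quencher. Agonist activity is taken from the 110 s fluorescence read following compound pin-transfer on an FDSS, before EC80 54-4 challenge.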
gsp agonist: qHTS for Agonist of gsp, the Etiologic Mutation Responsible for Fibrous Dysplasia/McCune-Albright Syndrome: qHTS | actives 0.13% (n = 340,000) | Potency, µM (highest dose often 76.9 µM), without a hit: at the highest dose activation (cAMP increase), usual class: activators | gsp mutant cells, cAMP HTRF, 30 min; control for the full effect not named in the record; active = well fitted activation curve with a large enough effect; inconclusive = small, poorly fitted or top-dose-only effect, or another doubt; inactive = no such curve, though single readings can be large or run the other way; cell line not stated here;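 also: phosphodiesterase inhibitor Ro 20-1724 added with compounds to block cAMP breakdown; potency is read from the fitted curve at half-maximal effect; nearly all actives have a fitted effect of over 60% in size; about a fifth of the inactives were tested at one dose only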
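Cells in DMEM/10% FBS with G418 were pretreated with compounds in DMSO plus […] (300 uM stock) for 30 min at 37C. cAMP was measured by HTRF (cAMP-d2 plus anti-cAMP antibody-K) after 30 min at room temperature.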
gsp antagonist: qHTS for Antagonists of gsp, the Etiologic Mutation Responsible for Fibrous Dysplasia/McCune-Albright Syndrome: qHTS | gsp-mutant cells, cAMP HTRF, 30 min; control for the full effect not named in the record | AID 624288, 2012 | actives 0.4% (n = 340,000) | Potency, µM (titrated, usually from 76.9 µM), inactives show top-dose activity change, negative = inhibition, most hits filed as inhibitors; active = falling curve of any shape with a large fitted effect; inconclusive = falling curve, mostly with a smaller effect; inactive = flat or rising curve; cell line not stated here;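 also: intracellular cAMP measured with PDE inhibitor Ro 20-1724 present during compound exposure; potency is read from the fitted curve at half-maximal effect; % is scaled to controls: 0 for no effect and ±100 for the full control effect; nearly all actives have a fitted effect of over 65% in size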
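Cells, 2000/well, grown 16–24 h in DMEM 10% FBS with 0.5 mg/ml G418, then compounds plus […] (300 uM addition stock), 30 min at 37C. cAMP read by HTRF (cAMP-d2 and anti-cAMP antibody-K in lysis buffer) after 30 min RT.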
Starred values were filed as active, the others as inactive; ? = inconclusive; . = not tested or not shown; & = joins results of further samples; [ ] = remark or other dose. Not a hit list; about 2.1% have a hit in one of these screens.

Order of results – Menin-MLL FL inh	TRPML1 inh	ClpP mod	TRPML1 ag	gsp agonist	gsp antagonist
- Cc1ccc(CNC(=O)C2CCCN(c3ncnc4onc(-c5ccc(F)cc5)c34)C2)cc1 (configuration not stated)
    .	-6	-4.2%	0.2	.	.
- CCn1c(SCC(=O)N2CCCc3ccccc32)nc2cccnc21
    -0.7	-3	-4.8%	-0.8	3%	3%
- O=C(O)c1cccc(-n2cc(-c3cccc(C(F)(F)F)c3)cn2)c1
    0.3	8	-13%	-0.6	19%	-27%
- CCc1ccc(OCCCC(=O)NCc2ccco2)cc1
    -2.1	-7	1.4%	0.9	-23%	2%
- O=C(NCCc1ccccc1)c1ccc2c(c1)N(Cc1ccccc1F)C(=O)c1ccccc1S2=O (configuration not stated)
    .	31	-3.4%	-1.4	.	.
- CCOC(=O)c1cccc(NC(=O)c2cc(CN3CCOCC3)on2)c1
    .	-25	0.2%	1.0	.	.
- Cc1ccc(/C=C/c2onc(C)c2S(=O)(=O)N2CCC(C(=O)N3CCN(c4ccccc4F)CC3)CC2)cc1
    .	-10	1.1%	0.4	.	.
- CN(C)c1ccc(C(=O)NC2CCCc3ccccc32)cc1 (configuration not stated)
    -3.9	13	.	-0.3	-3%	-1%
- COc1ccccc1N1CCN(C(=O)CSc2nnc(NC(=O)C3CCC3)s2)CC1
    -0.6	-8	0.5%	0.9	-1%	-24%
- CCOC(=O)C1=C(CC)Nc2ccccc2N=C1NC(=O)c1cc(S(=O)(=O)N(C)C)ccc1Cl
    0.8	-1	-1.6%	-0.3	8%	-3%
- Cc1ccc(-c2cnc3c(Cl)c(C)nn3c2)cc1
    -1.3	1	.	2.9	7%[15.4 µM]	-3%
- CCOC(=O)C1CCN(C(=O)CCn2c(=O)[nH]c3ccsc3c2=O)CC1
    0.5	2	-4.3%	-0.3	10%	5%
- CCOC(=O)/C(=C/c1cn(C)c2ccccc12)NC(=O)c1ccccc1
    1.6	3	.	0.1	-22%	-4%
- COc1ccc(NC(=O)C2CCCN(c3ncnc4onc(-c5ccc(F)cc5)c34)C2)cc1 (configuration not stated)
    -0.7	17	0.3%	1.4	-4%	?
- Cc1cccc(C)c1OCC(=O)Nn1c(C)nc2ccccc2c1=O
    17	-6	-1.1%	0.1	-4%	-1%
- CC1CCCCN1C(=O)CSc1nnc(-c2ccccc2F)o1 (configuration not stated)
    .	-7	.	-0.4	15%	2%
- COc1ccccc1OCCNC(=O)CNC(=O)c1ccc2c(c1)OCO2
    .	-3	.	0.7	6%[15.4 µM]	3%
- Cc1ccc(N(CN2C(=O)C3C4CCC(C4)C3C2=O)C(=O)c2ccco2)cc1 (configuration not stated)
    1.4	30	1.0%	3.2	-10%	-5%
- CCCCN1CC(COCc2ccccc2)OCCS1(=O)=O (configuration not stated)
    .	31	-0.6%	0.1	.	13%
- S=C(NNc1ccnc2cc(Cl)ccc12)Nc1ccccc1Cl
    .	3	-3.6%	-0.2	-33%[inhibitor]	-1%
- Cc1ccc(CN2CCN(Cc3cccc4c3OCO4)CC2CCO)cc1 (configuration not stated)
    -1.9	6	.	0.0	-97%[inhibitor]	-4%
- ON=C1/C(=N\O)CC2(C/C1=N/O)OCCO2
    -1.1	23	-2.8%	0.3	8%	8%
- COc1ccccc1N1CCN(CCCCN2C(=O)C3CCCCN3C2=O)CC1 (configuration not stated)
    -2.7	-6	-0.4%	0.9	-4%[15.4 µM]	22%
- CCOC(=O)Cc1c(C)c2c(O)cc(O)cc2oc1=O
    6.1	-11	25µM*	0.7	35%	1%
- CCOC(=O)c1ccc(CN(Cc2ccc(F)cc2)S(=O)(=O)c2cc(C(=O)Nc3cccc(C(F)(F)F)c3)ccc2F)cc1
    .	-9	?	1.4	.	.
- COCCNc1nc2c(c(=O)n(Cc3cccc(Cl)c3)c(=O)n2C)n1C
    4.8	-15&10	-1.0%&-2.1%	-0.4&-0.6	-3%	-16%
- CC1(C)C(=O)CCC2(C)C1=CCC1C2C(=O)CC2(C)C1CCC2(O)C(=O)CO (configuration not stated)
    .	-10	-0.3%	0.9	11%[15.4 µM]	-8%
- Cc1ccc(NC(=O)CN(Cc2ccccc2)S(=O)(=O)c2ccc3nc(C)sc3c2)c(C)c1
    .	18	-0.4%	2.7	.	.
- C[C@]12c3[nH]c4ccccc4c3CCN1C(=O)C(CC(=O)NCc1ccco1)C[C@@H]2C(=O)N1CCCCC1 (some centres not stated)
    .	-5	-2.2%	0.1	.	2%
- Cc1noc(C)c1NC(=O)Nc1cccc2c1O[C@H](CN(C)C(=O)Nc1ccccc1)[C@@H](C)CN([C@H](C)CO)C2=O
    .	32	-1.5%	-0.5	-48%[inhibitor]	11%
- CCOc1ccc(CCNC(=O)c2ccc(-c3nc(CSc4ccccc4)c(C)o3)cc2)cc1
    .	1	-1.1%	0.1	.	.
- CN(CC(=O)Nc1ccc(F)cc1)C(=O)C1CCN(S(=O)(=O)c2ccc3c(c2)OCCO3)CC1
    .	7	.	-0.6	5%[15.4 µM]	-14%
- CC(Cl)=CCn1c(NCCc2ccccc2)nc2c1c(=O)n(C)c(=O)n2C
    .	-7	0.0%	0.6	.	.
- COc1ccc2c(Sc3ccc(Cl)cc3)c(C(=O)N3CCC(C)CC3)[nH]c2c1
    .	-6	-3.7%	1.0	.	.
- COc1ccccc1Cn1c(=O)c2ccccc2n2c(SCc3csc(C)n3)nnc12
    -1.4	-11	-7.8%	0.6	-25%	?
- COc1ccc(/C=C/c2nc(-c3ccccc3O)n(-c3ccccc3)n2)cc1
    0.2	0	?	-0.3	?	0%
- CCOc1ccccc1CNC(=O)C(C)n1nc(C)c2c(C)n(-c3ccccc3)nc2c1=O (configuration not stated)
    .	2	-2.0%	-1.1	-3%	?
- CCCCN1C(=O)C(O)=C(C(C)=O)C1c1ccc(OC)cc1OC (configuration not stated)
    1.7	11	-4.6%	-0.3	?	-8%
- COc1cccc(Oc2ccc(C(F)(F)F)cc2NC(=O)CCc2nc3ccccc3c(=O)[nH]2)c1
    .	-1	-0.8%	3.0	0%	4%
- Cn1cnnc1SCC(=O)N1CCc2ccccc2C1
    .	0	-6.8%	-0.6	26%	.
- CC(=O)c1ccc(OC(=O)CCN2c3ccccc3Sc3ccccc32)cc1
    -4.2	9	-0.9%	1.0	?	3%
- CC[C@H](C)[C@H](NC(=O)[C@H](Cc1ccc(O)cc1)NC(=O)[C@@H](N)C(C)C)C(=O)N[C@@H](Cc1cnc[nH]1)C(=O)N1CCC[C@H]1C(=O)N[C@@H](Cc1ccccc1)C(=O)O
    4.7	-13	1.0%	-0.5	.	-1%
- O=C(CSc1nnc(-c2ccncc2)o1)N1CCCC1
    -4.1	14	.	-0.5	15%[15.4 µM]	11%
- COc1ccc(-c2ccc(C(=O)C3CC3)cc2)cc1
    3.0	1	.	0.1	12%	3%
- CCOC(=O)N1CCN(c2c(N3CCN(c4ccc(F)cc4)CC3)c(=O)c2=O)CC1
    2.1	5	.	1.9	-1%[15.4 µM]	-10%
- CC(C(=O)N1CCN(C(=O)c2ccco2)CC1)N1C(=O)NC2(CCCCC2C)C1=O (configuration not stated)
    .	4	1.2%	0.6	-6%	12%
- COc1cccc(-n2c(SCC(=O)Nc3cccc(Cl)c3)nc3c(oc4ccccc43)c2=O)c1
    .	3	-5.6%	-0.1	.	.
- CCN(C[C@H]1N[C@@](CC)(C(=O)OC)[C@H]2C(=O)N(C)C(=O)[C@@H]12)C(=O)Nc1ccc(OC)cc1
    .	3	-1.1%	-0.1	.	5%
- Cc1c(C(=O)N2CCN(Cc3cccs3)CC2)oc2ccccc12
    .	26	-4.0%	0.5	-8%	-5%
- Cc1nc(SCC(=O)c2cccs2)c2oc3ccccc3c2n1
    3.0	1	-1.9%	0.2	?	13%

Going on with the list.
Order of results – Menin-MLL FL inh	TRPML1 inh	ClpP mod	TRPML1 ag	gsp agonist	gsp antagonist
- CCCCCCCNC(=O)c1cc(-c2ccncc2)nc2ccccc12
    -5.9	3	.	0.0	-11%[15.4 µM]	-8%
- COc1cccc(-c2ccnc3c(-c4ccccc4)c(C)nn23)c1
    .	22	0.8%	1.5	.	.
- CCOc1ccccc1CNS(=O)(=O)c1cnc(N)nc1
    .	4	-0.2%	-0.5	.	.
- O=C(NC1CCN(Cc2ccccc2)CC1)c1ccc2c(c1)[nH]c(=O)n2Cc1ccc(F)cc1
    -3.2	1	.	0.4	22%[15.4 µM]	-7%
- Cc1ccc(CN2CCSc3ccc(C(=O)Nc4cc(C)cc(C)c4)cc32)cc1
    .	3	4.1%	0.1	.	.
- Cc1ccc(S(=O)(=O)N2CCc3c2cc([N+](=O)[O-])cc3[N+](=O)[O-])cc1
    -14	-14	-3.3%	0.8	?	?
- Cc1ccc(O)c([C@H](CCN(C(C)C)C(C)C)c2ccccc2)c1
    -7.0&-1.2	9&-4	1.8%&-2.2%	-0.8&1.1	.	-20%&4%
- CC(C)(C)c1csc(NC(=O)CSc2nc3ccccc3c(=O)[nH]2)n1
    -0.2	7	-4.7%	0.1	6%	?
- CC(C)c1cc[n+](-c2nc([O-])sc2C=O)cc1
    ?	4	-1.6%	0.2	-39%[inhibitor]	-6%
- CC(OC(=O)Cc1ccccc1[N+](=O)[O-])C(=O)NC(=O)NC1CCCCC1 (configuration not stated)
    .	-6	1.0%	0.8	-50%	-13%
- CCOc1ccc(CNC(=O)CS(=O)(=O)c2cccc3nsnc23)cc1
    .	4	-4.2%	1.6	.	.
- CCOC(=O)c1sc(NC(=O)CN2CCN(c3ccc(OC)cc3)CC2)nc1C
    4.0	9	.	0.8	-69%	-2%
- CCC(C)[C@H](NC(=O)N1c2ccccc2NC(=O)[C@@H]1C(C)C)C(=O)N[C@@H](Cc1ccccc1)C(=O)O (some centres not stated)
    -5.0	.	1.5%	.	.	8%
- O=C(NCc1ccc(Cl)cc1)c1ccc(-n2cccn2)nc1
    2.3	-25	.	-0.8	-21%[15.4 µM]	-9%
- CCCCN(CCCC)CP(=O)(c1ccccc1)c1ccccc1
    10	17	1.4%	6.3	1%	-5%
- COc1ccccc1C(=O)NN1C(=O)C2C3C=CC(O3)C2C1=O (configuration not stated)
    0.2	16	-4.4%	0.5	-22%	2%
